BJeLR viability: MLPCN primary cell-based screen for lethality selective to Ras in HRASV12 cells. BJeLR (HRASV12) viability, CellTiter-Glo ATP luminescence, 48 h; reference of the scale not given here. inhibition, % (test concentration not listed). actives 0.17% (n = 300,000);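 active = replicate mean above 50%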;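 note: 50 nL library stock added to about 25 µL; numbers are from one replicate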
Mtb hypoxia rep: PubChem AID 1159583 | M. tuberculosis hypoxia-regulated fluorescent reporter, fluorescence | fluorescence inhibition, % (no concentration beside the values) | actives 0.1% (n = 300,000);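 active = 35 to 45% if threefold the growth effect, above 45% if 1.5-fold the growth effect; inactive = the rest, general growth blockers included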;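 note: wells of about 50 µL received 100 nL stock; 0% = vehicle wells and 100% = reference inhibitor wells; whole bacteria with a GFP reporter of the hypoxia response; strong numbers were not always called active; many hits fall short of the cut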
PrP UTR inh: inhibition of PrP 5' UTR reporter expression; cell-based PrP 5' UTR mRNA reporter, plate reader; inhibition, % (test concentration not listed); actives 0.35% (n = 340,000); AID 488862, 2010;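 active = every replicate at 50% or more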;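 note: 0 = median of the neutral control wells; tested in H4 reporter cells; numbers are from one replicate; inactives centre near -14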
Sa RN4220 lethal: growth inhibition of S. aureus RN4220, primary screen, OD600; 16 h; actives 0.33% (n = 330,000); inhibition, % (test concentration not listed);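 active = z-score of -3 or lower and OD600 up to 0.18 on both plates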;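 note: plate controls were untreated cells for no effect and reference antibiotic for full effect; stock transfer was 100 nL into about 80 µL; one replicate is shown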
Bead autofluor: compound fluorescence in toxin protease inhibitor counterscreen; fluorescence intensity (no concentration beside the values); compound autofluorescence counterscreen, microsphere flow cytometry; hits give high values; actives 3.1% (n = 360,000);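 active = at least 3 SD above the mean of all compounds, about 16000 in these data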;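 note: 100 nL of 1 mM stock went into each well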
Sa ugtP lethal: growth inhibition of ugtP-null S. aureus, primary screen, RN4220 ugtP deletion, OD600 | 16 h; some inactives read as strong as hits | actives 0.54% (n = 330,000) | growth inhibition, % (no concentration beside the values);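 active = z-score under -3 and OD600 up to 0.15 on both plates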;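 note: plate controls were untreated wells for no effect and antibiotic for full effect; wells of about 80 µL received 100 nL stock; the first replicate is given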
Mtb hypoxia rep growth: also measured in Mtb hypoxia rep; calls as there; growth inhibition, %; measured here: M. tuberculosis growth (absorbance);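 0% = vehicle and 100% = reference antibiotic; read after six days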
Numbers without * were called inactive; / = not tested or not shown; & = joins results of further samples.

Under each structure – BJeLR viability | Mtb hypoxia rep | Mtb hypoxia rep growth | PrP UTR inh | Sa RN4220 lethal | Bead autofluor | Sa ugtP lethal
CCCCOC(=O)c1ccc(NC(=O)C(=O)NCc2ccccn2)cc1
    10 | -9 | -3 | -22 | -2.8 | 6353 | -7
CCN(CCO)Cc1csc2cc(C)ccc12
    3 | 5 | 5 | 4 | 4.8 | 2441 | 13
CC(Oc1ccc(Cl)cc1Cl)C(=O)OCn1nnc2ccccc2c1=O (stereo not given)
    6 | / | / | -6 | 6.9 | 3604 | 10
O=C(/C(C=Nc1cc2c(oc1=O)CCCC2=O)=C(\O)c1ccccc1)c1ccccc1
    -3 | 0 | 8 | -25 | 3.2 | 4332 | -6
COc1ccc(NC(=O)C2CCC(CNS(=O)(=O)c3cccs3)CC2)cc1 (stereo not given)
    0 | -8 | -5 | -22 | 7.6 | 3335 | 8
CCC1Oc2ccccc2C(=O)N(CC(=O)c2ccc3c(c2)OCCO3)C1=O (stereo not given)
    -7 | 4 | 6 | -41 | 3.6 | 4244 | 18
Cc1ccc2nc(SCC(=O)Nc3cc([N+](=O)[O-])ccc3F)[nH]c2c1
    3 | 21 | -1 | -8 | -4.8 | 2147 | -20
CCOC(=O)C1CCCN(S(=O)(=O)c2ccc(Cl)nc2)C1 (stereo not given)
    -4 | 12 | 3 | -26 | 5.6 | / | -2
CCOC(=O)c1c(/N=C/C2=C(O)CCCC2=O)sc(C)c1C
    -1 | / | / | -13 | / | 2488 | /
CCOc1ccc(C=NNC(=O)C2CC2)c(OCC)c1
    / | 12 | 6 | / | 1.1 | / | -2
CCc1nnc(NC(=O)c2cccs2)s1
    6 | 7 | 9 | -32 | 0.5 | 5255 | 10
CCc1ccc(OCc2ccc(C(=O)O)o2)cc1
    1 | 2 | -10 | -71 | 7.7 | 2983 | 8
Cc1ccc(C)c(C(=O)CCC(=O)NNC(=O)c2cccs2)c1
    / | 7 | 7 | -12 | 0.0 | 8423 | 4
CNc1nc(-c2ccc3c(c2)CCN3C(=O)c2ccccc2C)cs1
    6 | -10 | -7 | -72 | -5.6 | 4656 | -13
CCOC1=C/C(=C/c2c(N)n3nc(-c4ccccc4)sc3nc2=O)C=CC1=O
    6 | 15 | 9 | -6 | 2.8 | 4979 | -2

Full records as entered above:
O=C(/C(C=Nc1cc2c(oc1=O)CCCC2=O)=C(\O)c1ccccc1)c1ccccc1 in the list: BJeLR viability: -3; Mtb hypoxia rep: 0; Mtb hypoxia rep growth: 8; PrP UTR inh: -25; Sa RN4220 lethal: 3.2; Bead autofluor: 4332; Sa ugtP lethal: -6
CCc1ccc(OCc2ccc(C(=O)O)o2)cc1 in the list: BJeLR viability: 1; Mtb hypoxia rep: 2; Mtb hypoxia rep growth: -10; PrP UTR inh: -71; Sa RN4220 lethal: 7.7; Bead autofluor: 2983; Sa ugtP lethal: 8

Remaining list, next part
Under each structure – BJeLR viability | Mtb hypoxia rep | Mtb hypoxia rep growth | PrP UTR inh | Sa RN4220 lethal | Bead autofluor | Sa ugtP lethal
COc1cc2c(cc1OC)-c1cc3ccc(OC)c(OC)c3c[n+]1CC2
    / | 4 | 10 | -6 | 3.4 | 4554 | -2
CC(C)CN(C(=O)COC(=O)Cc1n[nH]c(=O)c2ccccc12)C1CCS(=O)(=O)C1 (stereo not given)
    7 | -6 | 0 | -23 | 4.1 | 21604* | -5
CCOC(=O)c1c(C)[nH]c(C)c1C(=O)CSc1nnnn1-c1ccccc1
    2 | -3 | 5 | -4 | 12 | 3334 | 1
Cn1nccc1NC(=O)NC(=O)c1c(Cl)cccc1Cl
    -9 | 4 | 11 | -21 | 2.7 | 4361 | 10
Cc1cccc(-n2ncc3c2CCCC3NC(=O)C2=CC(=O)CC(C)(C)O2)c1C (stereo not given)
    12 | 8 | 4 | -15 | 2.0 | 6035 | -3
CCOC(=O)c1nn(-c2ccccc2C)c(=O)c(C#N)c1C
    6 | / | / | -14 | -0.8 | 2321 | 6
N#CC(C#N)=c1ccc2c(c1)NC1(CCCCC1)N=2
    2 | / | / | -22 | / | 2749 | /
CCOC(=O)CNC(=O)c1nn(-c2cccc(OC)c2)c(=O)c2ccccc12
    / | / | / | 11 | 5.1 | 2872 | -1
COc1cc(/C=N/Nc2ccc(S(N)(=O)=O)cc2[N+](=O)[O-])cc(OC)c1O
    -10 | / | / | -5 | / | 4362 | /
CCN1C[C@@H]2[C@@H]3C(=O)N(C)C(=O)[C@@H]3[C@](CC)(C(=O)OC)N2C1=NC
    / | 1 | 2 | -13 | -1.0 | 4085 | 6
Cc1cccc(N2CCN(C(=O)c3cc4n(n3)C(C(F)(F)F)CC(c3ccco3)N4)CC2)c1C (stereo not given)
    -2 | 7 | 6 | -10 | -6.9 | 2793 | -27
CCc1ccc(CN2CCC(C(=O)Nc3cccc(-c4nnc(C)s4)c3)CC2)o1
    0 | 3 | 0 | 2 | 2.9 | 5104 | 9
O=C(O)CC1(CC(=O)Nc2ccccc2Br)CCCC1
    4 | 15 | 9 | -11 | 3.3 | 4023 | 7
Cn1ccnc1C(=O)c1cc(=O)c2ccccc2o1
    1 | 1 | 0 | -33 | 3.2 | 10906 | -3
CCCCc1cc(=O)oc2cc(OCC(=O)N3CCC(C(=O)O)(c4ccccc4)CC3)ccc12
    4 | / | / | -16 | 3.8 | 5689 | 3

The final 4 records of the section above are carried over, then new ones follow:
Under each structure – BJeLR viability | Mtb hypoxia rep | Mtb hypoxia rep growth | PrP UTR inh | Sa RN4220 lethal | Bead autofluor | Sa ugtP lethal
CCc1ccc(CN2CCC(C(=O)Nc3cccc(-c4nnc(C)s4)c3)CC2)o1
    0 | 3 | 0 | 2 | 2.9 | 5104 | 9
O=C(O)CC1(CC(=O)Nc2ccccc2Br)CCCC1
    4 | 15 | 9 | -11 | 3.3 | 4023 | 7
Cn1ccnc1C(=O)c1cc(=O)c2ccccc2o1
    1 | 1 | 0 | -33 | 3.2 | 10906 | -3
CCCCc1cc(=O)oc2cc(OCC(=O)N3CCC(C(=O)O)(c4ccccc4)CC3)ccc12
    4 | / | / | -16 | 3.8 | 5689 | 3
CCSc1ccc(C2C3C(=O)N(CC)C(=O)C3[C@]3(C(=O)OC)CCCCN23)cc1OC (stereo not given in full)
    / | 13&-8 | 12&-4 | / | 8.4&2.0 | / | -2&-4
O=C(CSc1nc2ccccc2c(=O)n1-c1ccccc1)NC(=O)CN1CCCC1=O
    -5 | 1 | 16 | -122 | 2.6 | 4025 | 4
NC(Cc1ccc([N+](=O)[O-])cc1)=NOC(=O)CC1CCCCC1
    / | 7 | 11 | / | -0.8 | / | 9
Oc1cccc(C=NCc2ccccc2)c1
    -31 | 1 | -1 | -6 | 1.8 | 3767 | -2
O=C1NC2(CCCCC2)C(=O)N1CCS(=O)(=O)Oc1ccc(Br)cc1
    8 | 9 | 3 | -22 | 3.7 | 4611 | 2
CC(C)OC(=O)c1c(NC(=O)C2CC=CCC2C(=O)O)sc2c1CCCCC2 (stereo not given)
    3 | 11 | -5 | 1 | 13 | 4679 | 0
C=CCNC(=O)C(=O)NCC(c1ccc2c(c1)OCO2)N1CCN(c2ccc(F)cc2)CC1 (stereo not given)
    -4 | 7 | 15 | -15 | 0.7 | 5732 | 6
O=C(C[n+]1ccccc1)NNc1ccccc1
    3 | / | / | -10 | / | 4076 | /
CN1C(=O)CC(C(=O)Nc2ccc(F)cc2)SC1=Nc1ccc2c(c1)OCO2 (stereo not given)
    4 | 18 | 8 | -5 | 3.2 | 11026 | 0
Cc1nnc(N/N=C/c2cc([N+](=O)[O-])c(N3CCC(C)CC3)cc2N2CCC(C)CC2)n1N
    -1 | / | / | -15 | / | 8837 | /
COC(=O)C1=C(C)Nc2c(c(=O)n(C)c(=O)n2C)C1c1ccncc1 (stereo not given)
    -3 | 4 | 3 | -12 | -0.7 | 1991 | 1
C(=N\N1CCN(Cc2ccccc2)CC1)/c1cccnc1
    14 | / | / | -18 | / | 10846 | /
O=C(O)CN1C(=O)/C(=C\c2cc(Br)ccc2OCc2ccccc2Cl)SC1=S
    4 | 2 | 1 | -15 | 16 | 3346 | 60
O=C(OCCN1CCCC1=O)c1cncc(Br)c1
    -14 | 5 | 5 | -22 | 1.2 | 11430 | 0
O=C(CSc1nnc(-c2ccccc2Cl)o1)Oc1ccc(Br)cc1
    -11 | / | / | -32 | / | 2735 | /
Cc1nc(C(=O)NCc2ccccc2)sc1C1(C)CC(c2ccccc2)=NO1 (stereo not given)
    8 | 15 | 1 | -11 | -1.9 | 3979 | 1
O=C(CSc1cn(CC(=O)N2CCCCC2)c2ccccc12)NCC1CCCO1 (stereo not given)
    5 | 8 | 5 | -7 | 2.7 | 4327 | 2
Cc1cc(C)c(NC(=O)CSc2nnc(-c3ccccn3)n2N)c(Cl)c1
    8 | 15 | 4 | -22 | 3.2 | / | 11
NC(=S)NN=C1c2ccccc2-c2c(C(=O)O)cccc21
    / | 3 | -1 | / | 5.1 | / | 3
CC1S/C(=C(\C#N)C(=O)NCc2ccco2)N(Cc2ccco2)C1=O (stereo not given)
    4 | / | / | 17 | / | 2975 | /
COc1ccc(CNc2cc(C)ccn2)c(O)c1
    6 | 8 | 10 | -1 | 1.9 | 4064 | 8
N#CC1=C(N)Oc2n[nH]c(-c3cccs3)c2C1c1ccco1 (stereo not given)
    7 | 7 | 8 | -22 | -6.3 | 3217 | -7
CCOC(=O)C1CCN(c2cc(=O)n(C3CCCCC3)c(=O)[nH]2)CC1
    -2 | 5 | 8 | -31 | -9.2 | 3003 | -5
COc1ccc2oc(C(=O)NCC3CCCO3)c(C)c2c1 (stereo not given)
    -1 | 14 | 1 | -73 | 2.5 | 6076 | 1
CCOc1ccc(NC(=O)CCS(=O)(=O)c2ccc(C)cc2)cc1
    -3 | -1 | 4 | -17 | -2.5 | 3641 | 14
CN1C(=O)C(c2ccccc2[N+](=O)[O-])C(=O)c2ccccc21 (stereo not given)
    -5 | 12 | 9 | -30 | -2.3 | 3787 | 2
C=CCn1cc(-c2cccc(Cl)c2)cc(C#N)c1=O
    -3 | 13 | 8 | -5 | 0.8 | 3459 | -1
CCn1c(C)c(C(=O)O)c2cc(OC)ccc21
    -7 | / | / | -10 | 1.8 | 2265 | 7
CCOC(=O)N1CCN(C(=O)c2cn(CC)c3ccc(S(=O)(=O)N4CCC(C)CC4)cc3c2=O)CC1
    10 | 11 | 8 | -12 | -0.2 | 4550 | 1
CCN(C(=O)CN1CCN(c2ccccc2)CC1)c1c(N)n(Cc2ccccc2)c(=O)[nH]c1=O
    4 | / | / | -19 | -2.1 | 3129 | 3
C1CN(CC2COC(CN3CCOCC3)CO2)CCO1 (stereo not given)
    / | 11 | 13 | -4 | 1.8 | 3929 | 4
Cc1ccc(C)c(N2CCN(C(=O)CCc3nc(-c4ccccc4Br)no3)CC2)c1
    / | 1 | 2 | -37 | -2.3 | 3569 | -6
CC1(c2ccccc2)CC(C)(C)N2C(=O)C(=O)c3cccc1c32 (stereo not given)
    -9 | / | / | -5 | / | 3321 | /
CCCN(CCC)S(=O)(=O)c1ccc(C(=O)OCCN2C(=O)c3cccc4c(N5CCOCC5)ccc(c34)C2=O)cc1
    0 | 4 | 7 | -23 | 2.2 | 10692 | 4
Cn1c2c(c3ccccc31)CCN=C2c1ccccc1
    1 | 6 | 8 | -21 | 1.4 | 3892 | -14
CC(C)(C)c1ccc(C(=O)NNC(=O)C(=O)N2CCCCC2)cc1
    / | -2 | 6 | -11 | -2.9 | 9763 | -2
COc1ccc(C=NNC(=O)CCN2CCN(c3ccccc3)CC2)c(OC)c1OC
    / | 13 | 7 | / | 2.7 | / | 7
NNC(=O)c1ccc(OCC2CC(c3ccc(Cl)cc3)=NO2)cc1 (stereo not given)
    -1 | 15 | 2 | -23 | 17 | 4065 | -4
O=C(NCc1cccnc1)c1ccc(N2CCOCC2)c([N+](=O)[O-])c1
    -1 | 2 | -3 | -19 | -0.3 | 2805 | 4
CCn1cc(S(=O)(=O)c2ccc(OC)cc2)c(=O)c2cc(F)c(N3CCN(C)CC3)cc21
    -9 | -1 | -7 | -1 | -4.1 | 4171 | -4
CC1CN(CC(O)c2ccc(Br)cc2)CCO1 (stereo not given)
    / | 6 | 5 | -24 | 3.5 | 2979 | 9
COc1cc2c(cc1OC)C[N+](C)(C)CC2
    2 | / | / | 1 | / | 5814 | /
CC1(C)C(=O)Nc2ccccc2N1C(=O)COC(=O)CNS(=O)(=O)c1ccc(F)c(F)c1F
    / | -7 | -6 | -4 | 1.9 | 3741 | 5
CCOc1ccc(Cl)cc1C1=CC(=O)CC(c2ccc(OC)cc2)C1 (stereo not given)
    / | 12 | 12 | / | 2.1 | / | -18
N#Cc1cccc(C#N)c1Oc1ccc(S(=O)(=O)Nc2ccc(Cl)cc2)cc1
    -2 | -1 | 9 | -14 | 1.8 | 5160 | -11

Screening data from PubChem BioAssay.
